Compound activity from PubChem.
Choline anaer gr = blocks anaerobic gram-negative growth on choline; 55,000 compounds, 0.2% hits; calls only; Gram-negative bacterium anaerobic choline minimal medium, absorbance growth; active compounds read low; many inactives read as strong as hits in the columns shown; AID 1963822;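 active means growth z-score on choline under -2 at 7 or 20 h with little or no fall on glycerol, limits in tiers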;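 further: stock transfer was 300 nL into about 50 µL; the organism is E. coli; final concentration not given here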
Choline anaer gr early = also measured in Choline anaer gr; calls as there; z-score; measured here: choline growth z-score, timepoint 1;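 score of optical density at 7 h as mean of two plates; lower means less growth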
The depositor's hits bear a star; i = inactive; & = joins results of further samples.

SMILES | Choline anaer gr | Choline anaer gr early
NC(N)=NCC1COC2(CCCCC2)O1 (stereo unspecified) | i | 0.68
COc1ccc(S(=O)(=O)N2CCN(C3CCN(Cc4ccccc4)CC3)CC2)cc1 | i | 0.71
CCn1c(CNS(=O)(=O)c2cccc3nsnc23)nc2cccnc21 | i | -0.37
O=C(c1ccc(F)cc1)N1CCN(c2cc(=O)n3nc(-c4ccccc4)sc3n2)CC1 | i | -0.64
Cc1ccc(C)c(N2CCN(C(=O)C3CCCCN3S(=O)(=O)c3ccc(F)cc3)CC2)c1 (stereo unspecified) | i | 0.75
CCn1c(CN(c2ccc(F)cc2)S(C)(=O)=O)nnc1SCC(=O)Nc1ncc(C)s1 | i | 0.11
CCCCCCNC(=O)Cc1cccc2ccccc12 | i | -0.46
CCC(C)NC(=O)c1ccc(Cn2nc(C)c(S(=O)(=O)N(C)C)c2C)cc1 (stereo unspecified) | i | 1.05
Cc1nn(CC(=O)N2CCCC2)c(C)c1S(=O)(=O)N1CCCC(C(=O)Nc2ccccc2)C1 (stereo unspecified) | i | -0.83
CCC(C)NC(=O)CC1CCN(C(=O)c2cc3ccccc3[nH]2)CC1 (stereo unspecified) | i | -0.22
COCCNS(=O)(=O)c1cc(-c2ccno2)sc1C | i | -1.43
COc1ccc(OCC(=O)Nc2nc(-c3ccccc3)ns2)cc1 | i | 0.28
CN1C(C(=O)Nc2sc3c(c2C(N)=O)CCCC3)=CC(c2ccc(F)cc2)=NS1(=O)=O | i | 0.21
COc1ccc(CC(=O)NCCc2csc3nc(-c4cccc(F)c4)nn23)cc1 | i | 0.77
COc1ccc(S(=O)(=O)N2CCC3(CC2)Nc2ccccc2-n2cccc23)cc1OC | i | -0.05
Cc1noc2c1C(c1ccc(Cl)cc1)C1=C(CC(C)(C)CC1=O)N2 (stereo unspecified) | i | -0.76
CCn1nccc1C(=O)N1CCCC1c1cc(C(C)C)no1 (stereo unspecified) | i | 0.13
CC(C(=O)Nc1ccc(Br)cc1)n1nnc2sc3c(c2c1=O)CCCC3 (stereo unspecified) | i | 0.18
CN(C)CCOc1ccc(C(=C(CCCl)c2ccccc2)c2ccccc2)cc1 | i | -3.64
COc1ccc(NC(=O)c2ccnc(Nc3ccc(Br)cc3)c2)cc1 | i | -0.94
Cc1cc2n(n1)CCCN2CC(=O)Nc1ccccc1Cl | i | -0.68
COc1cccc(Nc2ncc3c(n2)CCN(Cc2cc(Br)cs2)C3)c1 | i | 0.45
Cc1nn(-c2ccccc2)c(C)c1C=NN1CCN(Cc2ccccc2)CC1 | i | -0.83
Cc1cc(Nc2ccc(F)cc2)ncn1 | i | -0.38

Sorted by length of the SMILES (largest number first): part of the list above.
SMILES | Choline anaer gr | Choline anaer gr early
COc1ccc(S(=O)(=O)N2CCN(C3CCN(Cc4ccccc4)CC3)CC2)cc1 | i | 0.71
CN(C)CCOc1ccc(C(=C(CCCl)c2ccccc2)c2ccccc2)cc1 | i | -3.64
CCC(C)NC(=O)CC1CCN(C(=O)c2cc3ccccc3[nH]2)CC1 (stereo unspecified) | i | -0.22
Cc1cc2n(n1)CCCN2CC(=O)Nc1ccccc1Cl | i | -0.68
NC(N)=NCC1COC2(CCCCC2)O1 (stereo unspecified) | i | 0.68

Next results follow.
SMILES | Choline anaer gr | Choline anaer gr early
NC(=O)N1c2ccccc2CC(O)c2ccccc21 (stereo unspecified) | i | 1.05
COc1ccccc1N1CCN(c2ncc(NC(=O)c3ccccc3F)cc2C(=O)O)CC1 | i | -0.82
Cc1[nH]c(C(=O)N2CCCC(C(=O)NCC3CCCO3)C2)c(C)c1C(=O)OC(C)C (stereo unspecified) | i | -0.17
CCOc1cc(C2C3=C(CC(c4ccccc4)CC3=O)Nc3onc(C)c32)ccc1OC (stereo unspecified) | i | -1.49
Cc1ccccc1S(=O)(=O)N1CCCN(c2nc3cc(Cl)ccc3n3cccc23)CC1 | i | 1.57
Cc1ccc(O)c(NC(=O)COCc2cc(-c3ccc(F)cc3)on2)c1 | i | 0.09
CN(C)c1ccc(-c2nc3cnccn3c2Nc2cccc(C(=O)O)c2)cc1 | i | 0.1
O=C(c1nnc(-c2ccc(S(=O)(=O)N3CCCC3)cc2)o1)N1CCCC1 | i | 0.12
Cc1cccc(-c2ccc(N3CCCC(C(=O)NC4CCCCC4)C3)nn2)c1 (stereo unspecified) | i | 0.99
COC(=O)CN1C(=O)CSc2ccc(S(=O)(=O)Nc3ccc(C)cn3)cc21 | i | 0.97
COc1ccc(N2CCn3c(nc4ccccc43)C2)cc1NC(=O)Nc1ccccc1 | i | -0.2
CN(CCc1noc(COc2ccccc2)n1)C(=O)c1ccccc1F | i | -0.4
CCC(SC1=Nc2ccccc2C2=NC(C)C(=O)N12)C(=O)Nc1ccc(Cl)cc1 (stereo unspecified) | i | -0.34
Cc1ccc2c(Cl)c(C(=O)Nc3cc(-c4ccc(F)cc4)no3)sc2c1 | i | 0.54
O=S1(=O)N=C(N2CCOCC2)c2ccccc21 | i | 0.89
COc1cccc(NC(=O)NCCCn2c(-c3ccncc3)nc3cccnc32)c1 | i | 0.07
O=C(Nc1ccc2c(c1)OCCO2)c1nc(N2CCOCC2)c2oc3ccccc3c2n1 | i | 0.85
O=C(NCCC1=CCCCC1)c1nc(Cn2c(=O)oc3ccccc32)no1 | i | 1.32
CCn1c(SCc2nc(-c3ccccc3)oc2C)nc2c(=O)[nH]cnc21 | i | -0.56
O=C(Cn1cnc2c(sc3ncccc32)c1=O)Nc1cc(F)ccc1F | i | 0.68
CCCCN1C=C(OC(=O)c2ccccc2Br)c2ccccc2S1(=O)=O | i | 2.93
Cc1ccc(S(=O)(=O)c2ccc(C(=O)N3CCN(c4cc(Cl)ccc4C)CC3)cn2)cc1C | i | 0.44
O=C(NCc1ccccc1)C1CCN(c2nc3ncccc3n3cccc23)CC1 | i | -0.44
CCOC(=O)c1[nH]c(C)c(C(=O)NCCc2ccc(S(N)(=O)=O)cc2)c1C | i | 0

Continued, starting with the last 3 of the part before.
SMILES | Choline anaer gr | Choline anaer gr early
Cc1ccc(S(=O)(=O)c2ccc(C(=O)N3CCN(c4cc(Cl)ccc4C)CC3)cn2)cc1C | i | 0.44
O=C(NCc1ccccc1)C1CCN(c2nc3ncccc3n3cccc23)CC1 | i | -0.44
CCOC(=O)c1[nH]c(C)c(C(=O)NCCc2ccc(S(N)(=O)=O)cc2)c1C | i | 0
COc1ccc2nc(-n3nc(C)c4c3NC(=O)CC4c3ccc(OC4CCCC4)cc3)sc2c1 (stereo unspecified) | i | 1.11
COc1ccc(C)cc1NC(=O)N1CCOc2ccc(COCc3ccc(F)cc3)cc2C1 | i | 1.62
Cn1c(=O)oc2cc(S(=O)(=O)Nc3ccc(S(N)(=O)=O)cc3)ccc21 | i | 0.28
O=C(CSc1nccn2nc(-c3ccccc3)cc12)Nc1ccc(Br)cc1F | i | 2.92
O=C1COc2ccc(S(=O)(=O)NCCC3=CCCCC3)cc2N1Cc1noc(C2CCC2)n1 | i | 0.99
O=c1c2cc3c(cc2nc(SCc2nc(-c4ccc(F)cc4)no2)n1-c1ccc(F)cc1)OCO3 | i | 1.28
O=S(=O)(Nc1cccnc1)c1ccc2[nH]c3c(c2c1)CCCCC3 | i | 0.3
Clc1ccc(-c2csc3ncnc(N4CCCCC4)c23)cc1 | i | 1.47
CCN(CC)S(=O)(=O)N1CCC(C(=O)NCCN2CCOCC2)CC1 | i | -0.52
CCCCN(CC)c1ccc2nnc(CCc3nc(-c4ccc5c(c4)OCO5)no3)n2n1 | i | -1.29
Cc1noc(-c2cc(S(=O)(=O)N3CCC(C)CC3)c(C)s2)c1C | i | 0.31
CC(=O)NCCc1csc(C2CCCN(C(C)=O)C2)n1 (stereo unspecified) | i | 0.27
COc1ccc(NC(=O)c2ccc(-n3cnc4c(sc5nc(C)cc(C)c54)c3=O)cc2)c(OC)c1 | i | 1.92
CN(CC(=O)NC1CCCC1)S(=O)(=O)c1ccc2c(c1)c(=O)n(C)c(=O)n2C | i | -0.01
CCCc1cc(=O)n2[nH]c(CNc3ccc(F)cc3)nc2n1 | i | -0.23
CCC1Cn2c(C(=O)NCCc3c[nH]c4ccccc34)cc3c(Cl)ccc(c32)O1 (stereo unspecified) | i | 0.38
CCOC(=O)c1c(C)[nH]c(C)c1S(=O)(=O)NCC(=O)NC(C)CC (stereo unspecified) | i | 0.04
O=C(NC1CCCC1)C1CCCN(S(=O)(=O)c2cc(-c3noc(C4CCC4)n3)cs2)C1 (stereo unspecified) | i | -1.58
O=C(c1ccc(-c2nc(-c3ccccc3)no2)cc1)N1CCN(c2ccc(Cl)cc2)CC1 | i | -1.12
O=C(Cn1c(=O)c(CCC(=O)NC2CCCC2)nc2ccccc21)Nc1ccc(Cl)cc1F | i | 0.39
CCc1nnc2c(=S)[nH]c3ccccc3n12 | i | -1.43
Cn1c(=O)c(=O)[nH]c2cc(-c3noc(/C=C/c4cccc(Cl)c4)n3)ccc21 | i | 0.45
CCOC(=O)N1CCC(NC(=O)CCC2CCN(c3cc(NC4CC4)ncn3)CC2)CC1 | i | 0.6
CCc1ccc(NC(=O)NCc2nc(-c3ccccc3C)oc2C)cc1 | i | 0.95
Cc1ccc(NC(=O)CSc2nc3nccnc3c(=O)n2Cc2ccc(Cl)cc2)cc1 | i | 0.05
CCCCn1c(=O)c2sccc2n2c(CCC(=O)N3CCN(c4ccccn4)CC3)nnc12 | i | 0.93
O=C(NC1CC1)c1ccc2c(c1)CCN2C(=O)C1CCCC1 | i | 0.92
Cc1cc(C)cc(C(=O)N(CCCN2CCOCC2)CCC(=O)N2CCNCC2)c1 | i | -2.31
CC(C)NC(=O)C1CCCN(S(=O)(=O)c2cn(C(C)C)cn2)C1 (stereo unspecified) | i | 0.58
COc1ccc(CNC(=O)CCC(=O)N2CC=C(c3c[nH]c4ccccc34)CC2)cc1 | i | -0.61
Nc1c(-c2nnc(SCc3cc(F)ccc3F)n2CC2CCCO2)sc2ncccc12 (stereo unspecified) | i | -1.38
CN1CC[C@H](c2c(O)cc(O)c3c(=O)cc(-c4ccccc4Cl)oc23)C(O)C1 (stereo partly specified) | i | -0.5
Cc1ccc(C(=O)N2CC(C)C(=O)Nc3ccccc32)cc1 (stereo unspecified) | i | -0.08
COc1ccc(OCC(=O)Nc2cccc(OCc3cc(=O)n4ccccc4n3)c2)cc1 | i | 1.31
CCN1C(=O)CCc2cc(NC(C)=O)ccc21 | i | -0.46
O=C(NC1CCCC1)c1cccc(-n2cnnc2)n1 | i | 0.02
N=C(N)c1ccc(OCCCCCOc2ccc(C(=N)N)cc2)cc1 | i | -0.76&-0.2&-1.21
O=C(NCCc1nc(-c2ccc(F)cc2)n[nH]1)c1cccc(F)c1 | i | -0.43
CC1CCN(S(=O)(=O)c2ccc(-c3nc(C#N)c(N(C)C)o3)cc2)CC1 | i | 0.01
O=S(=O)(c1cc(-c2ccno2)cs1)N(Cc1cccs1)C1CCCCC1 | i | 0.52
O=C(CSc1nc2ccccc2nc1Cc1ccc(Cl)cc1)NCC1CCCO1 (stereo unspecified) | i | 0.33
Cn1cc(-c2nc(-c3cccc(Br)c3)no2)c(=O)c2cc(F)c(N3CCOCC3)cc21 | i | -0.12
COC(=O)c1ccc2c(=O)n(-c3cc(C)cc(C)c3)c(N3CCN(Cc4ccccc4)CC3)nc2c1 | i | -1.49
CC1(C)C(=O)N(CC(=O)N2CCOCC2)c2ccc(S(=O)(=O)N3CCCC3)cc21 | i | -0.36
O=c1c(S(=O)(=O)N2CCCC2)cccn1Cc1ccc(F)cc1Cl | i | -0.49
COc1ccc(CNC(=O)C2(C)Cn3nc(C)cc3C(=O)N2c2ccccc2C)cc1 (stereo unspecified) | i | 0.8
NC(=O)CSc1nc2c(cnn2-c2ccc(Cl)cc2)c(=O)[nH]1 | i | 2.22
O=c1[nH]c2ccccc2cc1CN(c1ccccc1)S(=O)(=O)c1ccccc1 | i | 0.03

Entries of single compounds, quoted from the list. Screens in order: Choline anaer gr	Choline anaer gr early
`NC(=O)CSc1nc2c(cnn2-c2ccc(Cl)cc2)c(=O)[nH]1` is listed with i	2.22
`CC1(C)C(=O)N(CC(=O)N2CCOCC2)c2ccc(S(=O)(=O)N3CCCC3)cc21` is listed with i	-0.36
`CC1CCN(S(=O)(=O)c2ccc(-c3nc(C#N)c(N(C)C)o3)cc2)CC1` is listed with i	0.01
`COc1ccc(CNC(=O)C2(C)Cn3nc(C)cc3C(=O)N2c2ccccc2C)cc1` (stereo unspecified) is listed with i	0.8
`O=c1c(S(=O)(=O)N2CCCC2)cccn1Cc1ccc(F)cc1Cl` is listed with i	-0.49

(more compounds)
SMILES | Choline anaer gr | Choline anaer gr early
CCOC(=O)N1CCN(Cc2nc(-c3ccc(N4CCCC4)nc3)no2)CC1 | i | 0.6
COc1cc(OC)cc(N2C(C)=NS(=O)(=O)c3cccnc32)c1 | i | 0.65
Cc1cc(S(=O)(=O)C(CNC(=O)c2ccccc2F)c2cccnc2)ccc1F (stereo unspecified) | i | -0.17
Cc1ccc2nc(N3CCC(C(=O)NCCN4CCN(c5cccc(C)c5C)CC4)CC3)[nH]c2c1 | i | -5.77
COc1ccc(NC(=O)c2cccc(-c3cc(Oc4ccccc4OC)ncn3)c2)cc1OC | i | 0.81
CCOC(=O)c1ccc2c(c1)N(C(CC)C(=O)Nc1cccc(OC)c1)C(=O)c1ccccc1S2(=O)=O (stereo unspecified) | i | 1.61
CCN1C(=O)c2cc(C(=O)NCCN3CCCCC3)nn2CC1(C)C(=O)NC1CCCC1 (stereo unspecified) | i | 0.54
CCN(CC)CCCNC(=O)C1CCCN(c2ncnc3onc(C)c23)C1 (stereo unspecified) | i | -1.26
CC(C)(C)NC(=O)C(=O)NCC(c1cccnc1)N1CCc2ccccc2C1 (stereo unspecified) | i | -1.16
Cc1csc(-c2cc(S(=O)(=O)NCCCN3CCOCC3)cn2CC(=O)N2CCCCC2)n1 | i | -0.66

Not all compounds are listed (hit frequency here may not be typical).
